FPRL1 ligand – binds the human formylpeptide receptor-like-1 FPRL1. inhibition, %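 (tested at 6.7 µM)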. AID 441. hit rate 0.3% among 24,000. FPRL1-expressing cells, fluorescent ligand binding inhibition, flow cytometry;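 further: 0% = buffer alone and 100% = receptor blocker peptide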
Target sequence (P25090 whole entry, looked up): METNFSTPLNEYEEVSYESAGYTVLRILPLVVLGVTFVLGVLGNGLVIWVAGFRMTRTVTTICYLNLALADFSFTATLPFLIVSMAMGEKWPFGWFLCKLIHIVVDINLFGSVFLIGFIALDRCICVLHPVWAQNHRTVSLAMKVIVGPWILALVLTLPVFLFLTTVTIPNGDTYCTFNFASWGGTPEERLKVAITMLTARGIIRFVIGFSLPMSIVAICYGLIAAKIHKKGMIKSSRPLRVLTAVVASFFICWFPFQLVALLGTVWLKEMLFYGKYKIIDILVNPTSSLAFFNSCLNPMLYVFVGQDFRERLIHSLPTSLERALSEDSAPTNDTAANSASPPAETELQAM
FPR ligand – binds the human formylpeptide receptor FPR | P21462 | FPR-expressing cells, fluorescent ligand binding, flow cytometry | inhibition, %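 (tested at 6.7 µM)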 | hit rate 0.74% among 24,000 | AID 440;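 further: 0% = buffer wells and 100% = receptor blocker peptide wells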
Target sequence (P21462 whole entry, looked up): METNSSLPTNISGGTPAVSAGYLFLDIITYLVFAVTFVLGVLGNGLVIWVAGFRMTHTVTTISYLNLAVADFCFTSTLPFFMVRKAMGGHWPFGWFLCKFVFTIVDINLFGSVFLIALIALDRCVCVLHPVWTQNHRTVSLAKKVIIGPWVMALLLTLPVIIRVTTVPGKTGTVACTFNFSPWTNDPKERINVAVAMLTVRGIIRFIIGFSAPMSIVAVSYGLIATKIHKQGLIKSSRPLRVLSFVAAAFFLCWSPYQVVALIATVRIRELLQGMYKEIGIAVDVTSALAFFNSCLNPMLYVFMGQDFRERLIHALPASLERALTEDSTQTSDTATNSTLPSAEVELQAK
VCAM-1 inhibition – suppression of endothelial VCAM-1 upregulation – cell-based, plate reader, pooled HUVEC, TNFa stimulus (AID 454); HUVEC TNFa-induced VCAM-1 surface immunofluorescence, plate reader; numbers were filed only for top-ranked candidate wells; inhibition, % at 5 µM; hit rate 0.2% among 10,000;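 active means compound among top-ranked inhibitors of TNF-induced VCAM-1 adhesion protein staining, with the hit upheld by image or statistical review; inactive means the rest, including hits rejected on review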;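 further: 0% = TNFa with vehicle and 100% = cells without TNFa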
VCAM-1 down imaging – suppression of endothelial VCAM-1 upregulation – imaging, high-content imaging, pooled HUVEC, TNFa stimulus (AID 456); HUVEC TNFa-induced VCAM-1 surface expression, immunofluorescence imaging; numbers were filed only for top-ranked candidate wells; inhibition, % at 5 µM; hits with a dose series show IC50 in µM; hit rate 0.2% among 10,000;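 active means top tenth filtered wells with inhibition above zero that passed visual or statistical confirmation; inactive means the rest, including hits rejected on review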;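 further: 0% = stimulated vehicle wells and 100% = unstimulated cells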
VCAM-1 up imaging – enhancers of VCAM-1 display on endothelial cells, imaging, high-content imaging, pooled HUVEC, TNFa stimulus (AID 457) | Pooled HUVEC, TNFa-induced VCAM-1 immunofluorescence imaging; hits of this screen are not shown here | calls only | hit rate 0.2% among 10,000;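 active means a top-ranked rise in VCAM-1 staining upheld on image or statistical review; inactive means the rest, including candidates rejected on review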;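 further: compounds tested at 5 µM in the well; cells exposed to compound for 24 hours before fixing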
Numbers without * were called inactive; i = inactive; · = no result given.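 How the source made its calls, unless noted: active means mean above 30%; inconclusive means self-fluorescent; inactive means the rest.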 Not all compounds are listed; the hit share may differ from the screen's.

SMILES,FPRL1 ligand,VCAM-1 inhibition,VCAM-1 down imaging,VCAM-1 up imaging,FPR ligand
C=CCSC1=C(C#N)C(c2ccccc2C)CC(=O)N1 (centres undefined),-4,i,i,i,-5
COc1cc(C)c(C(N)=O)c(OC)n1,-3,·,·,·,-3
O=C1C(C=NCc2ccccn2)=C(O)c2ccccc21,-4,·,·,·,4
Cc1nnc(SCCCn2c(N3CCCCC3)nc3c2c(=O)[nH]c(=O)n3C)s1,1,i,i,i,-6
Cc1csc(NC(=O)C2CCCN2C(=O)Oc2ccccc2)n1 (centres undefined),-3,·,·,·,-4
O=c1cc(Nc2ccc3c(c2)OCCO3)[nH]c(=O)n1Cc1ccc(F)cc1,6,·,·,·,2
COC(=O)CCN(C)CCC(=O)OC,12,·,·,·,-3
CC(NS(=O)(=O)c1ccc(Cl)cc1)C(c1cccs1)N1CCN(C)CC1 (centres undefined),-1,·,·,·,1
COc1cc(NC(=O)c2nccnc2C(=O)O)cc(OC)c1,-4,i,i,i,-2
COc1cc(C)nc(SCC(N)=O)n1,8,·,·,·,-2
CCN(CC)CCCN1C(=O)C(O)=C(C(=O)c2ccc(C)o2)C1c1ccc(C)o1 (centres undefined),0,·,·,·,-7
CC(C)n1c(CNC(=O)c2ccccc2)nc2ccccc21,-3,·,·,·,0
CCOc1ccc(C(=O)Nc2ccc(Cl)cn2)cc1Cl,-3,·,·,·,3
CCCCNC(=O)c1ccc2c(c1)N(CC)C(=O)c1ccccc1S2(=O)=O,-8,·,·,·,-6
CCOC(=O)C1CCN(c2c(NCCN3CCN(c4ccccc4)CC3)c(=O)c2=O)CC1,0,i,i,i,-5
CCNCCNC(=O)c1c(O)c2ccccc2n(CC)c1=O,4,i,i,i,0
COc1ccc(CC(=O)N2CCOCC2)cc1OC,4,i,i,i,0
O=C(O)CCC(=O)N1CCN(c2nc(-c3ccccc3Cl)c3cc(Br)ccc3n2)CC1,6,·,·,·,-23
CCCc1c(O)nc(SCC(=O)NCCc2ccc(OC)c(OC)c2)[nH]c1=O,0,i,i,i,1
COc1ccc(C2=CC(=O)OC3(CCCCC3)O2)cc1,-6,i,i,i,11
O=S(=O)(NCC1CCCO1)c1ccc(S(=O)(=O)N2CCc3ccccc3C2)cc1 (centres undefined),4,i,i,i,0
CCN(CC)S(=O)(=O)c1ccc(Nc2nc3ccccc3n3nnnc23)cc1,-2,·,·,·,-11
O=c1c2cc3c(cc2[nH]c(=S)n1CCN1CCOCC1)OCO3,-1,·,·,·,-2
Cc1ccc(-c2nc(C3CCN(S(C)(=O)=O)CC3)no2)cc1,-14,·,·,·,-2
CCCCOc1ccc(S(=O)(=O)NCc2csc(C)n2)cc1,-2,·,·,·,4

SMILES,FPRL1 ligand,VCAM-1 inhibition,VCAM-1 down imaging,VCAM-1 up imaging,FPR ligand
O=C(Nc1ccncc1)c1cccc(F)c1,-9,i,i,i,4
Cc1ccc(CN2C(=O)CSc3ccc(C(=O)NCCN4CCOCC4)cc32)cc1,-3,·,·,·,-2
Cc1ccccc1C(=O)c1cccn1CC(=O)NCC1CCCO1 (centres undefined),-4,·,·,·,-2
COc1ccc(NC(=O)CC(NCCc2ccccc2)C(=O)O)c(OC)c1 (centres undefined),9,·,·,·,-8
CCOc1ccc2nc(NC(=O)C3CCN(S(=O)(=O)c4cnc[nH]4)CC3)sc2c1,-13,·,·,·,-1
COc1ccc(Br)cc1/C=c1\sc2nc(-c3ccco3)nn2c1=O,-9,·,·,·,0
CCOC(=O)N1CCC(NC(=O)CCc2c(C)nc3nc(C)nn3c2C)CC1,-2,·,·,·,0
COC(=O)Cn1cnc2sc(C)c(S(=O)(=O)N3CCC(C)CC3)c2c1=O,4,i,i,i,-3
CC1=C(C(=O)NCc2ccccn2)C2(CCC(C)CC2)OC1=O (centres undefined),-2,i,i,i,-6
CC(NS(C)(=O)=O)C(c1cccs1)N1CCN(c2ccccc2F)CC1 (centres undefined),0,·,·,·,1
O=C(NCCCNC(=O)c1ccccn1)c1ccccn1,-4,i,i,i,7
O=C(NC1CCN(Cc2ccccc2)CC1)C1CCN(S(=O)(=O)c2cccc3cccnc23)CC1,1,i,i,i,-4
CC(C)c1ccc(CNc2ccc(N3CCOCC3)cc2)cc1,-6,i,i,i,-6
COc1ccc(-c2nc(C(N)=O)c3[nH]c(=O)n(-c4cccc(Cl)c4)c3n2)cc1OC,-9,i,i,i,-8
COc1ccc2[nH]c3c(=O)n(CCCCC(=O)N4CCCC4)c(=S)[nH]c3c2c1,1,·,·,·,2
COc1cccc(-c2nc(CSCC(=O)N3CCc4ccccc43)c(C)o2)c1,-1,i,i,i,-4
Cc1cc(C)n2nc(SCC(=O)N(C)c3ccccc3)nc2n1,7,i,i,i,4
O=C(CN1CCN(Cc2ccccc2)CC1)N1CCCc2c1c(=O)oc1ccc(O)cc21,-7,·,·,·,2
O=C(NCCN1CCOCC1)c1cc(-c2ccc(Br)cc2)on1,1,·,·,·,-2
Cn1c(=O)cc(SCC(=O)NCCCN2CCOCC2)c2ccccc21,4,·,·,·,-3
CCOc1ccccc1C1CC(c2ccc(F)cc2)Nc2nc(N)nn21 (centres undefined),2,·,·,·,-2
Cc1ccc2cc3cc(C(=O)NCc4ccco4)oc3nc2c1,1,·,·,·,6
COc1ccc(N2CC(O)=C(c3nc4ccccc4s3)C2=N)c(OC)c1,-5,·,·,·,-1
CC(=O)C1=C(C)NC(SCSc2ccccc2)=C(C#N)C1c1cccnc1 (centres undefined),-3,i,i,i,-2
CSc1nc2c(ccc3ccccc32)o1,15,i,i,i,12

Ordered by value in FPR ligand (smallest number first): 4 of the compounds above
SMILES,FPRL1 ligand,VCAM-1 inhibition,VCAM-1 down imaging,VCAM-1 up imaging,FPR ligand
Cc1ccccc1C(=O)c1cccn1CC(=O)NCC1CCCO1 (centres undefined),-4,·,·,·,-2
CCOc1ccc2nc(NC(=O)C3CCN(S(=O)(=O)c4cnc[nH]4)CC3)sc2c1,-13,·,·,·,-1
COc1ccc(Br)cc1/C=c1\sc2nc(-c3ccco3)nn2c1=O,-9,·,·,·,0
CC(NS(C)(=O)=O)C(c1cccs1)N1CCN(c2ccccc2F)CC1 (centres undefined),0,·,·,·,1

Additional records
SMILES,FPRL1 ligand,VCAM-1 inhibition,VCAM-1 down imaging,VCAM-1 up imaging,FPR ligand
CCOc1ccc(-c2cc(CCCC(=O)N3CCN(c4ccc(OC)cc4)CC3)no2)cc1,9,i,i,i,1
CCOC(=O)CN1CC23C=CC(O2)C(C(=O)NCc2ccccc2OC)C3C1=O (centres undefined),-4,·,·,·,2
CC(O)Cc1nsc(NC(=O)c2cccs2)n1 (centres undefined),0,·,·,·,5
CCCCOc1ccccc1C1C(C(N)=O)=C(C)Nc2nnnn21 (centres undefined),-5,i,i,i,-3
Cc1nnc2n(-c3ccccc3)c(=O)c3c4c(sc3n12)CCCC4,7,i,i,i,-1
Cc1ccc(NC(=O)Cn2nnc(C(=O)NCc3cccs3)c2N)cc1,-2,·,·,·,-4
CCOc1ccccc1N(C(=O)Cn1nnnc1-c1ccc(C)o1)C(CC)C(=O)NC(C)(C)C (centres undefined),-2,i,i,i,-2
CCc1ccc(CNCc2cccnc2)cc1,2,i,i,i,0
COCC(C)NC(=O)CCS(=O)(=O)c1nc(-c2ccc(OC)cc2)cc(C(F)(F)F)n1 (centres undefined),-7,91*,83%,i,0
CC(C)N(CCc1ccncc1)C(=O)Nc1ccc(Cl)c(Cl)c1,-4,·,·,·,-2
NC(=O)c1cccc(S(=O)(=O)N2CCCCC2)c1,5,i,i,i,1
Cc1nn(C(C)C(=O)N2CCc3ccccc3C2)c(=O)c2cc3occc3n12 (centres undefined),2,·,·,·,-2
COc1cc(C(=O)N2CCN(c3cccc(C)c3C)CC2)cc(OC)c1OC,-5,·,·,·,3
CN(C(=O)c1ccc2c(c1)OCO2)C1(C(=O)NC2CCCCC2)CCCCC1,3,·,·,·,4
COc1cccc(C2/C(=C(/O)c3ccncc3)C(=O)C(=O)N2CCCN2CCOCC2)c1OC (centres undefined),6,·,·,·,-11
CCOC(=O)N1CCC(NC(=O)CSc2cc(=O)n(CC)c3ccccc23)CC1,2,·,·,·,4
NS(=O)(=O)c1ccc(CCNc2cc(=O)n(Cc3ccc(F)cc3)c(=O)[nH]2)cc1,-7,·,·,·,1
CC(=O)CC(=O)Nc1ccccc1NC(C)=O,3,i,i,i,2
CC(C)N1CCC2(CC1)N=C(c1ccc3c(c1)OCO3)CC(c1cc(Cl)ccc1O)N2 (centres undefined),-5,·,·,·,3
CC1CCCCC1NC(=O)Cn1nc(-c2ccccc2)ccc1=O (centres undefined),-2,·,·,·,-1
CC(=O)Nc1ccc(Oc2ccc3nc(C)[nH]c3c2)cc1,9,i,i,i,-3
Fc1ccc(-c2cc(C(F)(F)F)nc(NCC3CCCO3)n2)cc1 (centres undefined),-1,·,·,·,-3
O=C1CC(c2ccc(S(=O)(=O)NC3CC3)cc2)CN1 (centres undefined),-3,·,·,·,-1
Cc1ccnc(NS(=O)(=O)c2ccc(N=CC3=C(O)CC(C)(C)CC3=O)cc2)n1,6,i,i,i,4
COc1ccc(C)cc1NC(=O)c1nnn(Cc2cc(C)ccc2C)c1N,-8,·,·,·,-12

For reference, some entries already given.
SMILES,FPRL1 ligand,VCAM-1 inhibition,VCAM-1 down imaging,VCAM-1 up imaging,FPR ligand
COCC(C)NC(=O)CCS(=O)(=O)c1nc(-c2ccc(OC)cc2)cc(C(F)(F)F)n1 (centres undefined),-7,91*,83%,i,0
CC(C)N(CCc1ccncc1)C(=O)Nc1ccc(Cl)c(Cl)c1,-4,·,·,·,-2
NC(=O)c1cccc(S(=O)(=O)N2CCCCC2)c1,5,i,i,i,1
Cc1nn(C(C)C(=O)N2CCc3ccccc3C2)c(=O)c2cc3occc3n12 (centres undefined),2,·,·,·,-2

Next part:
SMILES,FPRL1 ligand,VCAM-1 inhibition,VCAM-1 down imaging,VCAM-1 up imaging,FPR ligand
CN(C)C(=O)CSc1nnc([C@H](Cc2c[nH]c3ccccc23)NC(=O)OC(C)(C)C)o1,5,i,i,i,8
COc1ccc(-c2nnc(SCC(=O)Nc3cc(C)on3)n2C)cc1OC,-3,i,i,i,-2
Cc1cccc2sc(NC(=O)CCNS(=O)(=O)c3cccc4nonc34)nc12,7,·,·,·,15
CCOc1ccc(S(=O)(=O)N2CCN(c3ccc(C)cc3C)CC2)cc1,-5,i,i,i,-6
CCCCC(=O)NCCc1cc2c(OC)ccc(OC)c2[nH]c1=O,4,·,·,·,-2
CSc1nccn1CC(=O)Nc1ccc(F)cc1,1,·,·,·,1
O=S(=O)(NCC1CCCO1)c1cccc(C(F)(F)F)c1 (centres undefined),6,i,i,i,0
CCOc1cc(N2CCOCC2)c(OCC)cc1NC(=O)CSc1cccc[n+]1[O-],0,i,i,i,-2
CCn1c(SCC(=O)Nc2nc3ccc(C)cc3s2)nc2c(c1=O)SC(C)C2 (centres undefined),-11,·,·,·,6
CCOc1ccc(NC(=O)C(CC)NC(=O)c2ccccc2CO)cc1 (centres undefined),-19,·,·,·,-12
Cn1ncc(Br)c1C(=O)Nc1ccc(Cl)cn1,1,·,·,·,4
COc1ccc(Oc2nc(Oc3ccc(OC)cc3)nc(Oc3ccc(OC)cc3)n2)cc1,0,i,i,i,4
COc1ccc(OC)c(NC(=O)c2nnn(Cc3ccc(Br)cc3F)c2N)c1,-9,i,i,i,-9
COc1ccc(-n2nc(C(=O)NCc3ccco3)c3c4ccccc4n(C)c3c2=O)cc1Cl,-2,·,·,·,1
C/C=C/c1ccc(OCCn2cncn2)c(OC)c1,3,i,i,i,-5
COC(=O)CCC(=O)c1oc2ccccc2c1NC(=O)CCCN1C(=O)c2ccccc2C1=O,1,·,·,·,-1
c1cn(CC2(Cn3ccnc3)COC2)cn1,0,i,i,i,-1
O=C(O)c1ccc(CSc2nnc(-c3ccco3)o2)cc1,-3,·,·,·,3
Cc1noc(C)c1S(=O)(=O)N1CCCC(C(=O)N2CCc3ccccc3C2)C1 (centres undefined),2,·,·,·,9

Compound activity as filed in PubChem.
